ALR inh – human ALR oxidase inhibition via reduced H2O2; P55789; purified ALR, DTT oxidation, H2O2 HRP-luminol luminescence; inhibition, % (concentration not given with the values); 290,000 tested, 3.8% active; AID 485317;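 active = mean and each replicate at 75% or more; inconclusive = only one of the two met; inactive = neither met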;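 also: stock transfer was 7.5 nL into about 7.5 µL; 0% = neutral wells and 100% = wells with inactivated enzyme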
Target sequence (P55789 whole entry, looked up): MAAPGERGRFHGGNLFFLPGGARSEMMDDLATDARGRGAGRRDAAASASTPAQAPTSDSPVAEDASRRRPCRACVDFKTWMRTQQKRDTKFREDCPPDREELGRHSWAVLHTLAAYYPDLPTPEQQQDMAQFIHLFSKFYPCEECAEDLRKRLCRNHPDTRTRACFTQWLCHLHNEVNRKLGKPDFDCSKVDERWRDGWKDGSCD
AF4-AF9 inh – MLL-AF4/AF9 protein interaction inhibition; AlphaScreen, biotin-AF4 peptide binding to FLAG-AF9; inhibition, % at 10 µM; 350,000 tested, 0.47% active; AID 651704;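 active = every replicate reaching a set inhibition limit, whatever the replicate mean, cut at about 25% in these data; inconclusive = mean inhibition reaches that limit but some replicates miss it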;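 also: 0% = plate neutral control median and 100% = total signal loss; the record names both 10 and 1 µM as test concentration; the first replicate is given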
Target sequence (P42568 whole entry, looked up): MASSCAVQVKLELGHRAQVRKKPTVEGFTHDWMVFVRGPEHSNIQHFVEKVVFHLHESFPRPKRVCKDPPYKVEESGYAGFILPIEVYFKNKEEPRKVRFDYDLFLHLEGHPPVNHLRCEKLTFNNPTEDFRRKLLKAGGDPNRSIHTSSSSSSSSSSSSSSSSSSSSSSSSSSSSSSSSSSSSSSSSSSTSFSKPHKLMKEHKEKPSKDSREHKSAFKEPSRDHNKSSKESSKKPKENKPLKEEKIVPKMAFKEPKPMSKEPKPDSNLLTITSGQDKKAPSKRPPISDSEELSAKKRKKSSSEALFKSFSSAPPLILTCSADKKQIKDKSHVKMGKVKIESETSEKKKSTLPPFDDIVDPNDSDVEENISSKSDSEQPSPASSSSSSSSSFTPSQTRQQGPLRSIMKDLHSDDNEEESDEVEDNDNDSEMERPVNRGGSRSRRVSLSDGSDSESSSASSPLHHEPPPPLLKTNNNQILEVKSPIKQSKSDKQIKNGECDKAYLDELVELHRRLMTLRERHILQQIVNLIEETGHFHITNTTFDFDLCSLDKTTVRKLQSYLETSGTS
Vif TR-FRET – inhibitors of Vif binding to APOBEC3G peptide, primary screen, biochemical, TR-FRET, GST-Vif 1-94, biotin-A3G peptide, dose response retest (AID 1117319); TR-FRET GST-Vif / biotin-A3G peptide binding; higher % means a stronger effect; test concentration not given here; strong numbers were not always called active; inhibition, %, or IC50 in µM where a hit was titrated; 260,000 tested, 0.57% active;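 active = above the screen mean plus three standard deviations and confirmed in dose response; inconclusive = results disagree or hit not tested in dose response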;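 also: Vif residues 1-94 fused to GST binding biotinylated APOBEC3G peptide 110-148; 0% = full assay without inhibitor and 100% = GST in place of GST-Vif; retest series ran down from 100 µM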
HNF4A DNA FP – change in binding of human HNF4 alpha to DNA; P41235; HNF4a-FITC DNA binding, fluorescence polarization, 1 h; activity change, % at 10 µM; 360,000 tested, 0.3% active; in the data active = activity change above about 30%, passing the limit was not always enough;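 also: controls were the assay level and a saturating level of protein; the project sought stronger binding though the title names inhibitors; some compounds called inactive have numbers as strong as hits; positive values seem to mean higher polarization but the record does not say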
Ecoli rRNA inh – inhibits bacterial ribosomal RNA function over humanized ribosomes | GFP signal change (wild-type ribosome), % (concentration not given with the values) | E. coli WT GFP vs humanized-ribosome RFP mutants, fluorescence, 24 h; hits give low values; DMSO median 0, no signal -100 | 350,000 tested, 1.6% active;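 active = significant combined selectivity score with lowered wild-type GFP, culture density cut under 30%, mutant RFP and density less affected; inactive = any of these conditions unmet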; also: one replicate is shown; some compounds called inactive have numbers as strong as hits
E coli growth – blocks Escherichia coli growth | OD600, 23 h; hits give low values | OD600 absorbance (test concentration not listed) | 330,000 tested, 0.21% active | AID 1053175;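 active = OD600 absorbance below the run mean of sample wells minus 3.6 SD, in any replicate, cut at about 0.56 in these data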;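 also: stock transfer was 300 nL into about 60 µL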
FGF22 binding – shifts melting point of recombinant human FGF22; calls only at 9.99 µM; AID 651658; recombinant FGF22 thermal shift, SYPRO orange fluorescence; percent of sucrose octasulfate shift, DMSO zero; 340,000 tested, 1.5% active;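 active = melting point raised past a set limit in the mean and every replicate; inconclusive = no clear call; three in four hits are not shown here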
Target sequence (Q9HCT0 whole entry, looked up): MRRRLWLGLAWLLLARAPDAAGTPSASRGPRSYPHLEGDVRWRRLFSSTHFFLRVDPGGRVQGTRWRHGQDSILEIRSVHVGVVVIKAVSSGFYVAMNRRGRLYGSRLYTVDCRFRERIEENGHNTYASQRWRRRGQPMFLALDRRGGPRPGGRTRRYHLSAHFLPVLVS
Ecoli rRNA inh OD600 – further read-out of Ecoli rRNA inh, marked with its call; OD600 change, %; measured here: OD600 growth;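 optical density of the mix in the first replicate; 0 = DMSO median and -100 = no signal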
Ecoli rRNA inh RFP – also measured in Ecoli rRNA inh; calls as there; RFP signal change, %; measured here: RFP humanized mutant strains;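 first replicate; 0 = DMSO median and -100 = no signal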
An asterisk follows results filed as active; i = inactive; ? = inconclusive; nt = not tested or not shown; & = joins results of further samples. A portion of the library; the hit share may differ from the screen's.

ALR inh,AF4-AF9 inh,Vif TR-FRET,HNF4A DNA FP,Ecoli rRNA inh,Ecoli rRNA inh OD600,Ecoli rRNA inh RFP,E coli growth,FGF22 binding,SMILES
nt,9.5,nt,nt,0,-6,-2.3,nt,i,Cc1ccc(S(=O)(=O)NCC[C@@H]2CC[C@H](NC(=O)CC3CC3)[C@@H](CO)O2)cc1
nt,-0.8,8%,-3.9,2,-1,-0.4,0.7,i,O=S(=O)(Nc1cccc(S(=O)(=O)N2CCCC2)c1)c1ccc(F)cc1
nt,-17,nt,nt,3,9,-2.9,nt,i,COc1ccc2c3c([nH]c2c1)[C@@H](CO)N(S(C)(=O)=O)CC31CCN(C(=O)Cc2cccnc2)CC1
14,-0.1,6%,-1.5,17,10,-0.4,0.64,i,CC(C)N(CCC#N)C(=O)Nc1ccc2c(c1)CCO2
-1,nt,10%&8%,2.9,nt,nt,nt,0.74,nt,COc1cc(OC)c(NC(=O)CCNC(=O)Cn2cnc3ccccc3c2=O)cc1Cl
49,-4.1,nt,0.1,-14,-14,-2.7,0.67,i,CCc1c(C2(O)CCCCC2)[nH]c2ccc(C(=O)OC)cc12
-5,1.5,nt,-2.8,16,7,3.2,0.71,i,COc1ccc(NC(=O)C(=O)Nc2cccc3cccnc23)cc1OC
-21,nt,3%,nt,nt,nt,nt,0.7,nt,CCOC(=O)C1=C(C)OC(N)=C(C#N)C1c1cc2ccccc2nc1N1CCCCC1 (centres undefined)
-69,nt,6%,0.9,nt,nt,nt,0.69,nt,COc1ccc(/C=C/C(=O)c2ccncc2)c2ccccc12
4,0.3,nt,0.1,0,6,-3.9,0.68,i,O=C(CCNC(=O)C1CCN(S(=O)(=O)c2ccccc2)CC1)Nc1ccccc1
5,1.0,nt,0.5,0,-9,2.1,0.72,i,COc1ccc(C(=O)CN2C(=O)NC3(CCc4ccccc43)C2=O)cc1 (centres undefined)
3,-3.1,-9%,0.6,-46,-76,-13,0.72,i,CN(CC(=O)Nc1cccc(F)c1)CC(=O)Nc1ccccc1-c1ccccc1
11,nt,0%,0.1,nt,nt,nt,0.77,nt,CCN1C(=O)/C(=C/N(C(C)=O)c2ccccc2)N(c2ccccc2)C1=S
nt,-0.5,nt,nt,3,-7,6.2,nt,i,CN1c2ccc(-c3ccc(C#N)cc3)cc2[C@@H]2[C@@H](CCN2S(=O)(=O)c2cccc(F)c2)[C@@H]1CO
-9,-1.5,-12%,1.6,-27,-31,-4.1,0.7,i,CC(C)c1nc(CNC(=O)c2cc(COc3c(F)cccc3F)on2)cs1
3,-0.8,nt,0.6,nt,nt,nt,0.73,i,CCCc1cc(=O)oc2c3c(cc(OCC(=O)N4CCC[C@H]4C(=O)O)c12)OC(C)(C)CC3
-16,nt,nt,0.5,nt,nt,nt,0.62,nt,O=C(COC(=O)c1ccc([N+](=O)[O-])s1)NCc1ccccc1
0,-1.1,nt,1.9,-14,-10,-5.6,0.64,i,CCN(CC)Cc1c(O)ccc2c(=O)c(-c3ccccc3Cl)coc12
nt,2.8,nt,nt,0,-13,2.6,nt,i,Cc1ccc(S(=O)(=O)N(C)C[C@@H]2Oc3ccc(NC(=O)Nc4ccccc4)cc3CC(=O)N([C@H](C)CO)C[C@@H]2C)cc1
nt,2.0,nt,nt,3,1,-1.6,nt,i,COc1ccccc1NC(=O)N[C@@H]1CC[C@@H](CCn2cc(C3(O)CCCC3)nn2)O[C@H]1CO
nt,-1.3,nt,nt,-4,-1,-1.0,nt,i,O=C(C[C@H]1CC[C@@H](NC(=O)Nc2cc(F)ccc2F)[C@H](CO)O1)NCc1ccncn1
nt,-0.5,nt,1.8,10,8,0.5,nt,i,CC(C)(C)OC(=O)N1CCCC(C(=O)Nc2cccc(C(=O)N3CCOCC3)c2)C1 (centres undefined)
-3,0.8,5%,3.5,10,12,4.4,0.68,i,O=C(NCc1nnc(SCC(=O)N2CCOCC2)o1)c1ccccc1F
nt,-3.6,nt,0.5,8,9,0.8,0.71,nt,CN(C(=O)c1cccc(NC(=O)Cc2ccc(NC(=O)C3CCCN(C(=O)C4CC4)C3)cc2)c1)C1CCCCC1 (centres undefined)
4,8.3,-7%,1.9,10,13,-0.4,0.68,i,OCCC1CN(Cc2cccn2-c2cccnc2)CCN1C1CCCCC1 (centres undefined)
-2,nt,12%,-0.2,nt,nt,nt,0.67,nt,Cc1ccc2[nH]c(=O)c(CN(CCN3CCOCC3)C(=O)Nc3ccc(F)cc3)cc2c1
-25,6.2,-7%,0.8,-24,-20,12,0.72,i,COc1ccc(OCC(=O)N2CCN(c3nnc(-c4ccc(C)cc4)c4ccccc34)CC2)cc1
nt,nt,-12%,-0.1,nt,nt,nt,0.72,nt,COc1ccc(OC)c(NC(=O)COC(=O)/C=C/c2ccccc2Cl)c1
0,nt,?,2.8,nt,nt,nt,0.78,nt,CCC(=O)NCCC(c1ccco1)c1ccccc1OC (centres undefined)
nt,0.4,nt,nt,5,10,1.5,nt,i,COc1ccc(NC(=O)N[C@@H]2CC[C@@H](CCNC(=O)CCN3CCCCC3)O[C@H]2CO)cc1
9,nt,-5%,-3.6,nt,nt,nt,0.71,nt,Cc1nn(Cc2ccccc2Cl)c(C)c1NC(=O)c1cc(-c2ccc(F)cc2)on1
nt,0.4,nt,-0.6,-9,1,-4.1,0.7,i,O=C(NCCc1ccc(Cl)cc1)c1n[nH]c2ccccc12

An excerpt from above in order of molar mass, lowest first.
ALR inh,AF4-AF9 inh,Vif TR-FRET,HNF4A DNA FP,Ecoli rRNA inh,Ecoli rRNA inh OD600,Ecoli rRNA inh RFP,E coli growth,FGF22 binding,SMILES
nt,0.4,nt,-0.6,-9,1,-4.1,0.7,i,O=C(NCCc1ccc(Cl)cc1)c1n[nH]c2ccccc12
4,8.3,-7%,1.9,10,13,-0.4,0.68,i,OCCC1CN(Cc2cccn2-c2cccnc2)CCN1C1CCCCC1 (centres undefined)
nt,0.4,nt,nt,5,10,1.5,nt,i,COc1ccc(NC(=O)N[C@@H]2CC[C@@H](CCNC(=O)CCN3CCCCC3)O[C@H]2CO)cc1

Remaining list, next part:
ALR inh,AF4-AF9 inh,Vif TR-FRET,HNF4A DNA FP,Ecoli rRNA inh,Ecoli rRNA inh OD600,Ecoli rRNA inh RFP,E coli growth,FGF22 binding,SMILES
nt,-2.4,nt,nt,1,8,-1.4,nt,i,Cc1ccc(S(=O)(=O)N(C)C[C@@H]2Oc3ccc(NC(=O)Cn4cnnn4)cc3CC(=O)N([C@@H](C)CO)C[C@@H]2C)cc1
nt,8.4,nt,1.9,-4,-20,-3.7,0.64,i,Cc1ccccc1NC1=C/C(=N\S(=O)(=O)c2ccc(C(=O)O)cc2)c2ccccc2C1=O
26,nt,?,5.0,nt,nt,nt,0.64,nt,CC12C=CC3(O1)C(C(=O)N(c1cccnc1)C3C(=O)NC1CCCCC1)C2C(=O)Nc1ccccc1 (centres undefined)
-3,1.4,-1%,-4.7,11,0,-0.2,0.68,i,CNC(=S)N(Cc1cc2ccc(OC)cc2[nH]c1=O)CC1CCCO1 (centres undefined)
nt,4.6,nt,nt,1,-11,0.1,nt,i,CC(=O)N(C)C[C@@H]1Oc2cc(C#CCC(C)C)ccc2S(=O)(=O)N([C@H](C)CO)C[C@H]1C
-1,-3.7,nt,-1.7,16,12,0.8,0.7,i,Cc1ccc(-n2ncc3c(=O)n(CC(=O)N(C)C)cnc32)cc1C
nt,-5.1,nt,4.4,0,-14,1.1,nt,i,CCOC(=O)C1(C)CCCN(C(=O)Cc2ccc3ccccc3c2)C1 (centres undefined)
-2,-3.2,nt,-2.1,5,4,-6.1,nt,i,COc1ccc(-c2sc3ccccc3c2/C=C/c2ccc(OC)c(OC)c2)cc1
nt,-3.6,-8%,1.7,-4,1,0.7,0.76,i,COc1ccccc1NS(=O)(=O)c1cccc(NC(=O)c2sc3ccccc3c2Cl)c1
-15,nt,2%,0.2,nt,nt,nt,0.71,nt,CC(C)(C)c1cc(C(=O)Nc2cccc3ccccc23)ccn1
23,-0.9,-3%,1.7,0,-1,-0.2,0.63,i,COC(=O)C(Cc1ccc(O)cc1)NC(=O)CCc1ccco1 (centres undefined)
15,nt,-1%,0.3,nt,nt,nt,0.76,nt,Cc1nc(C#N)c(NCc2ccc3c(c2)OCO3)o1
nt,nt,4%,0.1,nt,nt,nt,0.66,nt,COc1cccc(C(=O)CSc2nnnn2C2CCCCC2)c1
nt,-0.9,30%,1.1,-1,10,-2.2,0.65,i,Cc1cc(C2=NNC(=NCc3ccccc3)SC2)c(C)n1-c1c(C)n(C)n(-c2ccccc2)c1=O
-4,-1.3,nt,-0.3,-9,-43,-4.0,0.72,i,CC(C)c1ccc(OCC(=O)NNC(=S)NC(=O)c2cccs2)c(Br)c1
-1,nt,nt,-2.0,nt,nt,nt,0.69,nt,N#Cc1nc(NCC(F)F)nc(Nc2cc(F)cc(F)c2)n1
-1,0.3,nt,-4.2,1,4,-1.9,0.7,i,CC1CCCN(c2sc(S(C)(=O)=O)nc2S(=O)(=O)c2ccc(Cl)cc2)C1 (centres undefined)
2,nt,-8%,-0.8,nt,nt,nt,0.74,nt,CCOc1ccccc1NC(=S)Nc1ccccc1F
0,nt,0%,-0.7,nt,nt,nt,0.68,nt,CCOc1ccccc1Oc1c(C)oc2c(CN3CCN(C)CC3)c(O)ccc2c1=O
68,nt,5%,-3.1,nt,nt,nt,0.68,nt,O=S(=O)(c1ccc(OCC(O)CN2CCN(c3ccccc3O)CC2)cc1)N1CCOCC1 (centres undefined)
-10,6.6,nt,1.1,2,-3,4.0,0.66,i,CCc1nn(CC(=O)NCCCN(C)Cc2ccccc2)c(=O)c2cc3sc(C)cc3n12
-10,1.0,-4%,-0.3,-1,-2,-4.7,0.68,i,O=S(=O)(Nc1cccc(F)c1)c1cccc2nsnc12
1,nt,2%,1.1,nt,nt,nt,nt,nt,C/C(=N\NC(=O)CNC(=O)C(c1ccccc1)c1ccccc1)c1ccccc1
-6,nt,-5%,-1.8,nt,nt,nt,0.71,nt,CC1(C)Cc2c(C#N)c(SCc3nc4ccccc4[nH]3)nc(N3CCOCC3)c2CO1
nt,-0.1,nt,nt,-6,-19,-0.4,nt,i,C/C=C/c1ccc2c(c1)O[C@H](CN(C)C(=O)Cc1ccccc1)[C@@H](C)CN([C@H](C)CO)S2(=O)=O
-6,-1.7,1%,1.7,10,6,1.4,0.69,i,O=C(COC(=O)c1cc(=O)[nH]c2ccccc12)Nc1nccs1
nt,-1.2,nt,-0.4,19,8,2.3,nt,i,COc1cc(OC)nc(Nc2nc(CN)cs2)n1
nt,-2.5,nt,1.1,-28,-37,-13,nt,i,CC1(C)OC(=O)C2=C(C[C@@H](CCOCc3ccccc3)O[C@@H]2c2ccc(F)cc2)O1
-1,nt,nt,22,nt,nt,nt,0.69,nt,COc1cc(S(=O)(=O)N2CCOCC2)c(OC)c(S(=O)(=O)N2CCOCC2)c1
nt,-0.7,nt,-0.2,4,0,-4.5,0.7,i,Cc1ccc(S(=O)(=O)NCC(=O)N(CC(=O)NCc2ccco2)C2CCCC2)cc1
nt,3.8,6%,-2.6,15,23,-9.3,0.7,i,CC(Oc1ccc(Cl)cc1Cl)c1nc(-c2ccc(NC(=O)c3ccccn3)cc2)no1 (centres undefined)
nt,-3.3,nt,nt,2,0,0.2,nt,i,COc1ccc(S(=O)(=O)N(C)C[C@@H]2OCCCC[C@@H](C)Oc3ccc(NC(=O)CCC(F)(F)F)cc3C(=O)N([C@@H](C)CO)C[C@@H]2C)cc1
-13,-2.8,-4%,3.8,8,2,-0.1,0.69,i,Cc1cc(C)n2nc(S(=O)(=O)NC3CCCCC3)nc2n1
nt,-0.6,nt,nt,3,8,0.2,nt,i,C[C@H](CO)N1C[C@H](C)[C@@H](CN(C)Cc2ccc(Cl)c(Cl)c2)OCCCC[C@H](C)Oc2ccc(NC(=O)Nc3ccccc3)cc2C1=O
